# Menin-MLL FL inh: displaces fluorescein MLL peptide from human menin. FP activity change, % at 61.4 µM. 290,000 tested, under 10 active. Fluorescence polarization, fluorescein-MLL peptide displacement from menin; inconclusive = falling polarisation curve, or a change in total fluorescence; inactive = total fluorescence flat and polarisation flat or rising; no compound was filed as active; the % refers to the polarisation; negative = inhibition;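 note: % of control where 0% means no effect; inhibitors lower the polarisation; unlabelled MLL peptide was the positive control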
# PINK1 expr mod: PINK1 expression modulation. hit rate 0.2% among 410,000. Potency, µM (top dose mostly 76.6 µM), without a hit: top-dose activation (PINK1 increase), usual class: activators. PINK1 immunofluorescence, high-content cytometry, 24 h; active = well fitted activation curve with a large enough effect; inconclusive = small, poorly fitted or top-dose-only effect; inactive = flat fitted curve, though single readings scatter; cell line not stated here;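 note: potency is the fitted concentration of half-maximal effect; % of control where 0% means no effect; nearly all actives have a fitted effect of over 65% in size; a mitochondrial uncoupler was the plate control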
#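 Measures PINK1 amount and localization on or inside mitochondria by immunofluorescence. Stable cells get compounds at 5 concentrations for 24 hours before fixation and staining; CCCP controls included.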
# D2 ag: activates the human D2 dopamine receptor; P14416; DiscoveRx PathHunter D2 beta-arrestin, luminescence, 90 min; 100% = 57 uM dopamine signal; activation, % (concentration not given with the values); hit rate 0.084% among 360,000; in the data active = activation above about 40%; inconclusive = about 15% to 40%; inactive = below about 15%; note: compound concentration not given in the record; the text of the record calls up to 30% inactive
# Target sequence (P14416 whole entry, looked up): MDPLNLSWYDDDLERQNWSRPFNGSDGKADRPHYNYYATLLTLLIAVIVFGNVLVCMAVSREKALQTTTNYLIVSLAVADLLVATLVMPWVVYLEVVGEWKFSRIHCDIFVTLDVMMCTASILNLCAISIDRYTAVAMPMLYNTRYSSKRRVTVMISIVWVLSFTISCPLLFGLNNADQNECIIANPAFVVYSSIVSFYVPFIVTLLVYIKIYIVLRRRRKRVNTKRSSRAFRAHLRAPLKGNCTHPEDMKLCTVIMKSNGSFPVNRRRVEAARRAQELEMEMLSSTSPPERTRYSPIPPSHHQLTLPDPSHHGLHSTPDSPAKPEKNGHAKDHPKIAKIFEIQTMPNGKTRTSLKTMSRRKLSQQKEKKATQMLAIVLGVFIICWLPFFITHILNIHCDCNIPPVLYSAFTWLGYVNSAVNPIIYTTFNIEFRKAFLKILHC
#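 DiscoveRx PathHunter D2 beta-arrestin cells (2,100/well) attached overnight, then compound-stimulated 90 min at 37 C in HBSS/10 mM HEPES/0.1% Tween-20 buffer; beta-galactosidase complementation read by luminescence after 1 h at ambient temperature. Dopamine 57 uM final (EC100) as control.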
# gsp ag: agonists of gsp mutant (McCune-Albright syndrome) | AID 624287 | gsp mutant cells, cAMP HTRF, 30 min; control for the full effect not named in the record | Potency, µM (series often up to 76.9 µM), without a hit: top-dose activation (cAMP increase), most hits filed as activators | hit rate 0.13% among 340,000; active = well fitted activation curve with a large enough effect; inconclusive = small, poorly fitted or top-dose-only effect, or another doubt; inactive = no such curve, though single readings can be large or run the other way; cell line not stated here;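 note: phosphodiesterase inhibitor Ro 20-1724 added with compounds to block cAMP breakdown; potency is the fitted concentration of half-maximal effect; nearly all actives have a fitted effect of over 60% in size; about a fifth of the inactives were tested at one dose only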
#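 Cells stably selected in G418 were plated at 2000/well, grown 16-24 hr, then given compounds in DMSO with the PDE inhibitor […] (300 uM solution added) for 30 min at 37C; cAMP was read by HTRF.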
# gsp antag: antagonizes gsp, the McCune-Albright syndrome mutation; Potency, µM (series often up to 76.9 µM), without a hit: at the highest dose activity change, negative = inhibition, most hits filed as inhibitors; hit rate 0.4% among 340,000; AID 624288; gsp-mutant cells, cAMP HTRF, 30 min; control for the full effect not named in the record; active = falling curve of any shape with a large fitted effect; inconclusive = falling curve, mostly with a smaller effect; inactive = flat or rising curve; cell line not stated here;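 note: intracellular cAMP measured with PDE inhibitor Ro 20-1724 present during compound exposure; potency is the fitted concentration of half-maximal effect; % is set by controls: 0 for no effect and ±100 for the full control effect; nearly all actives have a fitted effect of over 65% in size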
#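 Cells in G418 medium, seeded 16-24 h, 37C; buffer exchange to DPBS + 1 mM CaCl2, 0.5 mM MgCl2, 0.05% BSA; cpds in DMSO + […] (300 uM stock), 30 min 37C; HTRF cAMP detection.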
# Sfp inh: inhibitors of Bacillus subtilis Sfp phosphopantetheinyl transferase; Biochemical Sfp PPTase activity, qHTS; Potency, µM, for inactives: max response, negative = inhibition, usual class: inhibitors; hit rate 3.5% among 310,000; active = well fitted inhibition curve with a large enough effect; inconclusive = small, poorly fitted or top-dose-only effect, or another doubt; inactive = no such curve, though single readings can be large or run the other way;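 note: the enzyme is Sfp with the accession as filed and its product quenches rhodamine fluorescence; potency is the fitted concentration of half-maximal effect; 0% = enzyme reaction without inhibitor and -100% = no enzyme wells; top concentration of the series not given in the record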
#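 After 15 min at room temperature with compound, 15 nM Sfp received 5 uM rhodamine-CoA plus 12.5 uM BHQ-2-ybbR (50 mM Hepes pH 7.6, 10 mM MgCl2). Rate came from the fluorescence difference over 30 min, ex 525/em 598 nm.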
# ClpP mod: qHTS Assay for Activators of ClpP; purified B. subtilis ClpP, FRET peptide cleavage, 20 min; Potency, µM (top dose mostly 57.5 µM), inactives show at the top dose activity change, negative = active; hit rate 1.9% among 340,000; AID 651965, 2013; active = well fitted falling curve with a large enough effect; inconclusive = small, poorly fitted or top-dose-only effect; inactive = no such curve, though single readings can be large or run the other way; note: potency is the fitted concentration of half-maximal effect; the source files actives as falling curves though it sought activators and does not explain the sign; nearly all actives have a fitted effect of over 65% in size; many hits overshoot -100%
# Target sequence (P80244 whole entry, looked up): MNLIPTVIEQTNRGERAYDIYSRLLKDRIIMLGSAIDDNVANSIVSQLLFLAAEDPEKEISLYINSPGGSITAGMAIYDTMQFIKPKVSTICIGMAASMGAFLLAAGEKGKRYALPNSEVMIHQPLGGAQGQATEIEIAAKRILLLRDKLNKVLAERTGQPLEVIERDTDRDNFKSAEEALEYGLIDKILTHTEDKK
#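 Buffer: 100 mM Tris/HCl pH8, 100 mM KCl, 0.05% low protease BSA, 2.5% glycerol, 0.01% Tween-20. ClpP 10 microg/mL final; 20 min RT; delta FRET normalized to ADEP and DMSO controls.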
# Numbers without * were called inactive; ? = inconclusive; . = not tested or not shown; [ ] = remark or other dose.
SMILES,Menin-MLL FL inh,PINK1 expr mod,D2 ag,gsp ag,gsp antag,Sfp inh,ClpP mod
CCN1C(=O)C(CC(=O)Nc2c(C)cccc2C)SC1=Nc1ccc(S(N)(=O)=O)cc1 (stereo not drawn),4.1,1.4%,-1.5,22.0%,-2.4%,1.3%,-0.8%
CNC[C@H]1OCc2cnnn2CCCC(=O)N([C@H](C)CO)C[C@@H]1C,.,4.4%,-2.3,.,.,.,-3.2%
CC(C)CN1CCC(=O)N([C@H](CO)Cc2ccccc2)CC1,3.2,2.2%,0.3,-48.5%[inhibitor],-5.5%,10.7%,-2.0%
CC(C)C(NS(=O)(=O)c1cccs1)C(=O)NCc1ccc2c(c1)OCO2 (stereo not drawn),-0.7,1.9%,1.9,-117.9%,5.2%,-2.7%,0.9%
Cc1cccc(CN2CCC(CNC(=O)Nc3ccccc3F)CC2)c1,.,0.2%,-7.5,-42.6%[inhibitor],0.5%,.,-1.4%
Clc1nc(NCCc2ccccc2)c2cn[nH]c2n1,.,-1.2%,-0.9,-5.7%[15.4 µM],6.8%,.,-2.9%
CC(C)(C)OC(=O)NCCCCCNC(=O)c1[nH]cnc1C(=O)Nc1cc(Br)ccc1F,.,6.0%,-8.2,-4.0%,.,.,4.7%
Cc1cnc(C(=O)Nc2ccc(N3CCCCC3)cc2)cn1,-3.5,-0.5%,-0.1,28.4%,2.7%,0.7%,.
CNC(=O)N/N=C(\N)c1ccccn1,0.2,3.5%,-9.7,21.1%,-4.3%,-25.0%,-0.9%
CN(CC(=O)NCC1CCCO1)S(=O)(=O)c1ccc2ccccc2c1 (stereo not drawn),.,3.5%,-4.4,-9.7%,.,.,-0.5%
CC1(C)CC(=O)C(C=Nc2ccc3c(c2)OCO3)=C(O)C1,5.1,11.7%[38.3 µM],-3.5,-6.4%,10.0%,21.9%,-2.2%
CC12CCC(C(=NO)C1=O)C2(C)C (stereo not drawn),.,2.7%,-1.8,-0.2%[15.4 µM],9.2%,.,-3.6%
CN(C)c1ccc(-c2ccnc3c2CC(C)(C(=O)NCC2CC2)O3)cc1 (stereo not drawn),.,3.0%,-2.9,.,.,.,4.6%
Cc1nn(-c2ccccc2)c(C)c1[N+](=O)[O-],2.9,1.2%,-0.8,-5.4%,5.7%,5.7%,.
CC(C)C(=O)Nc1cccc(C(=O)NCCc2ccc(S(N)(=O)=O)cc2)c1,2.5,5.7%[38.3 µM],-1.0,3.6%,-18.9%,15.3%,-0.7%
CC(C)CCNC(=O)C1CC(c2ccc(C(F)(F)F)cc2)=NO1 (stereo not drawn),0.0,3.4%,-5.4,-2.3%,-1.1%,9.4%,-1.3%
O=C(Cc1cccc(NC(=O)C2CCCN(C(=O)C3CC3)C2)c1)Nc1ccc(C(=O)N2CCCCC2)cc1 (stereo not drawn),.,-0.8%,1.6,.,8.0%,.,1.4%
COc1ccc(NC(=O)CCNC(=O)c2ccco2)cc1S(=O)(=O)N(C)C,4.2,-0.1%,0.4,-8.8%[15.4 µM],6.4%,10.1%,.
Cc1csc(NC(=O)CN2CCCCCC2)n1,2.3,?,-5.4,2.9%,-1.3%,79.4µM*,-2.3%
Cc1ccc(C)c(N2CCN(C(=O)CCCCCn3c(=S)[nH]c4ccc(N5CCOCC5)cc4c3=O)CC2)c1,-0.7,0.6%,0.0,22.9%,28.2µM*,8.2%,-17.5%
CC(=O)c1ccc(NC(=O)C(C)OC(=O)CCN=C2NS(=O)(=O)c3ccccc32)cc1 (stereo not drawn),.,1.8%,-2.1,?,12.0%,.,-1.8%
O=C(Nc1ccc2c(c1)CCC2)Nc1ccccc1Cl,-1.2,6.7%,-3.8,-3.9%,2.0%,7.2%,2.3%
COC(=O)c1ccccc1NC(=O)CCCCCn1nnc2ccccc2c1=O,-0.5,1.0%,1.8,4.5%,-28.3%,4.2%,-11.0%
O=C1CC(C(=O)O)C2(CCCC2)O1 (stereo not drawn),.,5.9%[38.3 µM],-2.5,18.5%,8.3%,.,0.1%
CCOC(=O)c1ccc(NC(=O)CN(C)S(=O)(=O)c2ccc(OC)cc2)cc1,-0.3,0.6%[38.3 µM],5.1,-40.2%[inhibitor],-1.0%,21.8%,0.5%
O=C(/C=C/c1ccccc1)Nc1cccc(C(=O)NC2CC2)c1,.,0.0%,-0.4,.,-9.2%,.,-0.2%
CN(CC(=O)NC1CCCCC1)S(=O)(=O)c1ccc2c(c1)c(=O)n(C)c(=O)n2C,.,-0.3%,-0.5,?,8.5%,3.3%,-3.6%
CC(=O)c1c(C)[nH]c(C(=O)Nc2nccs2)c1C,7.4,9.7%,0.9,-26.9%[15.4 µM],6.6%,-1.0%,.
COc1ccc(CN(C(=O)c2ccc3c(c2)OCCO3)C(C(=O)NC2CCCCC2)c2ccc3ncccc3c2)cc1 (stereo not drawn),0.1,1.5%[38.3 µM],-1.8,12.2%,-26.5%,3.7%,1.3%
CC1=CCC2([N+](=O)[O-])CN(CC(=O)O)CC1([N+](=O)[O-])C2 (stereo not drawn),-7.0,0.6%,-0.8,-0.6%,7.4%,18.7%,-1.4%
CCCNc1nc(OCC(F)(F)F)nc(OCC(F)(F)F)n1,6.4,-5.3%[38.3 µM],3.7,0.0%,1.5%,14.3%,0.1%
COc1cc(CCCN2C(=O)C(=O)NC[C@@H]2C(C)O)cc(OC)c1OC (stereo partly drawn),-0.8,1.4%,1.1,.,14.0%,17.3%,0.8%
CCCS(=O)(=O)n1nc(-c2ccccc2)cc1N,1.5,-0.8%,-7.2,-19.5%,3.1%,18.3%,-1.1%
Cc1ccc(-c2csc(NC(=S)NC(=O)c3cccs3)n2)cc1,.,4.5%,-0.9,-10.8%,7.8%,0.8%,-0.7%
O=C(CN(Cc1ccc(F)cc1)C(=O)c1csnn1)NC1CCCC1,0.2,0.2%,-1.0,?,5.4%,9.9%,.
CCOC(=O)CN(C(=O)CNC(=O)c1cccs1)C(C(=O)NC1CCCCC1)c1cccnc1 (stereo not drawn),3.7,-0.2%,-3.0,2.2%,-2.8%,-6.3%,0.8%
CN1CCN(C(=O)CCc2nc3ccccc3c(=O)[nH]2)CC1,-5.0,-0.6%,-2.7,16.8%,3.7%,2.1%,0.9%
CC(C)Cn1c(SC(C)C(=O)Nc2ccc(N3CCOCC3)cc2)nc2ccccc21 (stereo not drawn),9.0,-0.5%,4.2,-16.3%,?,6.6%,0.6%
Cc1ccc(OCCC(=O)N(CCC(C)C)c2c(N)n(Cc3ccccc3)c(=O)[nH]c2=O)cc1,.,3.9%,-2.7,-14.3%,-6.5%,.,-1.7%
COc1ccc(Cl)cc1NC(=O)CN(C)CC(=O)Nc1ccc(Br)cc1,-0.9,0.7%,9.6,-13.0%[15.4 µM],-4.4%,29.4%,-0.7%
O=C(O)CSCC(=O)Nc1ccc(S(=O)(=O)N2CCCCC2)cc1,1.1,0.1%,-3.2,-36.6%[inhibitor],5.1%,2.6%,0.6%
CC(C)NC(=O)c1cc(C2CCCCN2S(=O)(=O)c2cccs2)on1 (stereo not drawn),.,0.7%,-1.6,.,.,.,-1.2%
Cn1c(N)c(S(=O)(=O)NCc2ccccc2)c(=O)n(C)c1=O,.,3.5%,-0.3,.,18.1%,.,2.8%
Cc1ccc(NC(=O)C(C)S)cc1 (stereo not drawn),-3.1,1.3%,-5.9,-10.1%,-2.5%,39.8µM*,1.3%
CCCN(CC(=O)Nc1ccc(F)c(F)c1F)CC(=O)Nc1c(C)n(C)n(-c2ccccc2)c1=O,.,1.7%,1.2,?,-0.9%,.,0.3%
COc1ccc(NC(=O)N2CC[C@@]3(CCCNC3)C2)cc1,2.1,0.9%,.,.,.,?,.
O=[N+]([O-])c1ccc(COc2ncnc3ccccc23)cc1,-2.0,-0.4%,2.6,-27.8%[15.4 µM],5.6%,13.1%,.
CCCCOCCCNC(=O)c1cccs1,0.6,.,0.8,17.9%,4.9%,13.9%,0.7%
Cc1ccc2c(c1)N(C(=O)c1ccco1)C(C)(C)c1ssc(=S)c1-2,-1.2,-2.3%[38.3 µM],-1.4,-34.8%[inhibitor],?,-9.4%,0.6%
COCCNc1ncnc2ccc(-c3cccc(OC)c3)cc12,5.7,0.1%,.,.,.,6.0%,.
COc1ccc(/C=N/NS(=O)(=O)c2ccc(C)cc2)cc1,3.7,1.6%,0.4,-9.1%[15.4 µM],-2.8%,10.9%,-2.3%
O=S(=O)(c1ccc(Br)s1)N1CCc2ccccc2C1,3.2,0.1%[38.3 µM],-0.7,-5.7%,-13.3%,-16.0%,-0.5%
Cc1ccccc1OCCC(=O)N(CC(=O)Nc1ccccc1C(F)(F)F)Cc1ccco1,.,1.2%,-7.0,29.1%,-5.2%,.,-3.8%
Cc1ccc[n+](C(C)C(=O)Nc2ccc(C)c([N+](=O)[O-])c2)c1 (stereo not drawn),-1.6,-0.2%,-2.7,4.2%,21.4%,4.2%,0.8%
CC(C#N)Sc1nnc(-c2ccccc2F)n1C1CC1 (stereo not drawn),6.3,0.4%,-3.5,-17.4%[15.4 µM],-1.4%,10.6%,.
CC1CN(C(=S)Nc2ccccc2F)CC(C)O1 (stereo not drawn),-1.3,-1.1%,-2.9,-1.1%,5.3%,-11.5%,-0.4%
CCOC(=O)c1ccc(NC(=O)CCc2nnc3ccc(N4CCCC4)nn23)cc1,.,0.6%,-2.2,26.3%,2.7%,-4.4%,-1.9%
CSc1nnc(-c2ccccc2SC)o1,-0.8,3.1%,1.4,21.4%[15.4 µM],12.9%,?,.
Cc1ccc(N(CC(=O)Nc2c(C)n(C)n(-c3ccccc3)c2=O)S(C)(=O)=O)cc1C,-1.3,4.2%,-3.5,19.7%,-4.3%,10.2%,0.4%
O=c1c(C(c2ccccc2)c2c(O)sc3ccccc3c2=O)c(O)sc2ccccc12,0.7,2.5%[38.3 µM],-3.0,1.6%,-15.2%,12.6%,0.6%

# (more compounds)
SMILES,Menin-MLL FL inh,PINK1 expr mod,D2 ag,gsp ag,gsp antag,Sfp inh,ClpP mod
COc1ccc(C2NC(c3ccc(OC)cc3)C(c3ccccc3)C(=O)C2c2ccccc2)cc1 (stereo not drawn),2.0,0.7%,-5.9,5.4%[15.4 µM],-4.5%,0.2%,-0.4%
CCc1nc(NC(=O)c2sc(C)nc2C)sc1C(=O)OC,-0.7,-0.1%,0.1,?,-15.5%,8.3%,-1.4%
O=C1CC(c2ccc(Cl)cc2)CC(=O)C1CS(=O)(=O)c1ccccc1 (stereo not drawn),8.1,2.4%,0.5,-0.6%[15.4 µM],-5.2%,-94.3%,.
NS(=O)(=O)c1ccc(CNC(=O)Cc2ccccc2F)cc1,-4.9,0.1%,-1.2,-1.4%,11.1%,12.6%,.

# This is a random part of the collection. Share with any hit: about 5.1%.
